Sa RN4220 lethal = S. aureus RN4220 growth inhibition; OD600, 16 h; inhibition, % (no concentration beside the values); 330,000 tested, 0.33% active; AID 1259311;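 active = z-score of -3 or lower and OD600 up to 0.18 on both plates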;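 note: plate controls were untreated cells for no effect and reference antibiotic for full effect; stock transfer was 100 nL into about 80 µL; one replicate is shown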
Sa ugtP lethal = kills S. aureus RN4220 lacking UgtP; S. aureus RN4220 ugtP deletion, OD600 growth, 16 h; some inactives read as strong as hits; growth inhibition, % (concentration not given with the values); 330,000 tested, 0.54% active; AID 1259309;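 active = z-score under -3 and OD600 up to 0.15 on both plates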;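 note: plate controls were untreated wells for no effect and antibiotic for full effect; wells of about 80 µL received 100 nL stock; the first replicate is given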
Mtb hypoxia inh = inhibitors of hypoxia-regulated fluorescent reporter in Mycobacterium tuberculosis | fluorescence inhibition, % (test concentration not listed) | M. tuberculosis hypoxia-regulated fluorescent reporter, fluorescence | 300,000 tested, 0.1% active;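 active = 35 to 45% if threefold the growth effect, above 45% if 1.5-fold the growth effect; inactive = the rest, general growth blockers included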;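 note: wells of about 50 µL received 100 nL stock; 0% = vehicle wells and 100% = reference inhibitor wells; whole bacteria with a GFP reporter of the hypoxia response; strong numbers were not always called active; many hits fall short of the cut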
BJeLR lethal = kills HRASV12-expressing BJeLR cells. BJeLR (HRASV12) viability, CellTiter-Glo ATP luminescence, 48 h; reference of the scale not given here. inhibition, % (concentration not given with the values). 300,000 tested, 0.17% active;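 active = replicate mean above 50%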;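 note: 50 nL library stock added to about 25 µL; numbers are from one replicate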
Bead autofluor = flagged as autofluorescent in microsphere protease counterscreen; compound autofluorescence counterscreen, microsphere flow cytometry; hits give high values; fluorescence intensity (test concentration not listed); 360,000 tested, 3.1% active;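 active = at least 3 SD above the mean of all compounds, about 16000 in these data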;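 note: 100 nL of 1 mM stock went into each well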
PrP 5UTR inh = suppresses PrP 5' UTR mRNA reporter expression. cell-based PrP 5' UTR mRNA reporter, plate reader. inhibition, % (no concentration beside the values). 340,000 tested, 0.35% active. AID 488862;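 active = every replicate at 50% or more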;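 note: 0 = median of the neutral control wells; tested in H4 reporter cells; numbers are from one replicate; inactives centre near -14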
Mtb hypoxia inh growth = further read-out of Mtb hypoxia inh, marked with its call; growth inhibition, %; measured here: M. tuberculosis growth (absorbance);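 0% = vehicle and 100% = reference antibiotic; read after six days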
Starred values were filed as active, the others as inactive; nt = no result given.

SMILES	Sa RN4220 lethal	Sa ugtP lethal	Mtb hypoxia inh	Mtb hypoxia inh growth	BJeLR lethal	Bead autofluor	PrP 5UTR inh
CC(NS(C)(=O)=O)C(c1cccs1)N1CCN(Cc2ccccc2)CC1 (configuration not stated)	-11	1	6	9	2	6199	-6
CN(c1ccc(-c2csc(NC(=O)C3CC(=O)N(Cc4ccco4)C3)n2)cc1)S(C)(=O)=O (configuration not stated)	-0.3	0	24	12	nt	3834	-24
c1ccc(CCNC2CCCCCC2)cc1	-0.1	2	2	6	3	3736	-7
C[C@H](NC(=O)C1CCN(S(=O)(=O)c2ccccc2)CC1)C(=O)NCc1cccc(Cl)c1	1.9	10	3	5	5	4805	-4
O=C(N/N=C1\CCCc2c1[nH]c1ccc(Cl)cc21)c1ccncc1	nt	nt	nt	nt	5	2730	-11
CN(CC(=O)NCCc1ccccc1)S(=O)(=O)c1ccc(Br)s1	6.4	12	5	-1	-7	4033	1
COc1ccc(C(=O)NCCCc2ccccc2)cc1OC	1.8	3	7	5	-8	3981	-18
O=C(c1ccccc1NS(=O)(=O)c1ccccc1[N+](=O)[O-])N1CCOCC1	8.7	4	2	8	7	1948	-24
COc1ccc2c(c1)CCc1c(C(=O)Nc3c(C)n(C)n(-c4ccccc4)c3=O)noc1-2	-2.1	-1	-7	0	4	21125*	12
Cc1ccc(-c2nc(N)n(C(=O)c3cccnc3)n2)cc1	3.7	-7	-2	9	-6	7961	-30
COCc1cc(=O)n2c(-c3ccccc3OC)n[nH]c2n1	4.4	-3	-3	-2	7	6885	-19
C=CCn1c(SCC(=O)Nc2ccc(C(=O)OCC)cc2)nnc1-c1sc(N)nc1C	2.4	1	nt	nt	-10	2687	-6
O=C(Nc1ccc(Cl)c(Cl)c1)NC1CCS(=O)(=O)C1 (configuration not stated)	-4.9	-9	8	6	-7	3842	-14
CNc1cc(CSC)nc(SCc2ccc(Cl)c(Cl)c2)n1	-5.0	28	7	6	-6	13145	-6
O=C1C2N=NN(CC(=O)N3N=C(c4cccc5ccccc45)CC3c3ccccc3)C2C(=O)N1c1ccccc1 (configuration not stated)	7.1	-9	11	11	5	4094	-19
COc1ccc(NC(=O)C(c2ccccc2)c2ccccc2)c(OC)c1	2.9	1	1	5	1	3461	-3
COCCCNC(=O)COc1ccc(Cl)c(C)c1	2.1	1	4	0	-17	3746	-26
Nc1cccc2c1C(=O)N(C(=O)c1cccc(S(=O)(=O)N3CCCCCC3)c1)C2=O	-4.3	6	2	3	2	3481	-13
CCOc1ccc2nc(C)cc(C(=O)O)c2c1	-3.6	0	9	2	-11	9797	-22
Cc1ccc(C)c(S(=O)(=O)N2CCCC2CNC(=O)C(=O)NCC2CCCO2)c1 (configuration not stated)	2.0	11	3	6	-5	5396	-14
CC(Oc1ccccc1F)C(=O)NNC(=O)CCS(=O)(=O)c1ccccc1Cl (configuration not stated)	2.6	-6	1	-2	5	5145	-15
N#Cc1nc(-c2ccccc2F)oc1NCCc1ccccn1	0.2	3	1	4	-5	3032	-12
Cc1ccc(-n2c(C)cc(/C=C3\NC(=O)NC3=O)c2C)c(C)c1	19	-4	-2	2	-6	7968	-20
CCN(CC)CCSc1nnc2c3cc(F)ccc3n(Cc3ccccc3)c2n1	-0.5	5	10	-1	8	4109	-13
O=C(C1CC1)N1N=C(c2ccncc2)CC1(O)C(F)(F)F (configuration not stated)	6.8	4	9	10	5	2516	-26
O=C(NCc1cccnc1)Nc1cccc(NC(=O)NCc2cccnc2)c1	8.1	-7	10	2	-6	27382*	-14
CCc1nn(C(C)C(=O)N2CCN(Cc3ccccc3)CC2)c(=O)c2cc3occc3n12 (configuration not stated)	4.4	-3	2	7	-7	3142	-20
Cc1ccc(S(=O)(=O)N2CCN(CCNC(=O)C(=O)Nc3ccc(F)cc3)CC2)cc1	0.2	-3	2	18	-2	3939	-7
COc1ccc(S(=O)(=O)NC(C)CCc2ccccc2)cc1 (configuration not stated)	3.0	-5	5	6	9	4440	-24
Cc1ccccc1/C(N)=N/OC(=O)/C=C/c1ccccc1	3.1	5	7	8	6	22804*	-41
COc1ccc(C=NNC(=O)c2ccc([N+](=O)[O-])cc2)cc1COc1c(F)c(F)cc(F)c1F	-4.4	-7	0	4	nt	nt	nt
O=c1c2ccccc2nc2n1CCN2Cc1ccc(Cl)cc1	-3.4	-4	-2	-5	2	8679	-4
Cc1cc(NC(=O)CSc2nnc(-c3ccccc3C)n2C)no1	8.4	4	3	1	nt	3483	-27
N#CCC(=O)NN=Cc1ccc(OCc2ccccc2)cc1	4.1	-8	8	4	nt	nt	nt
CC(=NNC(=O)c1c(Br)cnn1C)c1ccc(NC(=O)c2ccc(F)cc2)cc1	3.7	3	11	3	nt	nt	nt
CSc1nnnn1-c1ccc(C(=O)OCC(=O)N2CCOCC2)cc1	2.6	3	3	5	4	9784	-30
COc1ccc(CNC(=O)[C@H](C)N2C(=O)N3CCc4c([nH]c5ccccc45)[C@@]3(C)C2=O)cc1OC	6.0	-14	nt	nt	0	5934	0
Cc1cc(=S)c2ccccc2[nH]1	-0.3	8	nt	nt	-4	5441	-14
COc1ccc(CCNC(=O)Cn2cnc3c(cnn3C(C)(C)C)c2=O)cc1OC	3.3	-1	6	0	10	2380	-10
CC(C)C[C@H](NS(=O)(=O)c1ccc(Br)cc1)C(=O)O	3.3	2	1	5	-8	22565*	-8
COc1ccc(CCNC(=O)c2cc3c(F)cccc3s2)cc1OC	0.7	-5	-9	5	-10	6930	-17
CCN1CCN(Cc2ccc(NC(=O)c3ccc(C)c(NC(=O)c4nccnc4N)c3)cc2C(F)(F)F)CC1	0.0	0	7	-2	9	3580	21
Cc1ccccc1NC(=O)COc1ccc(Br)cc1CNCCCO	2.6	5	5	17	-2	5944	-18
COc1cc([N+](=O)[O-])ccc1NC(=O)Nn1cnnc1	2.7	9	-4	-19	-3	4701	-19
Cc1cc(C)cc(C(=O)NCCN2CCOCC2)c1	3.5	11	6	19	3	4215	-17

3 entries from above, arranged by molar mass, ascending:
SMILES	Sa RN4220 lethal	Sa ugtP lethal	Mtb hypoxia inh	Mtb hypoxia inh growth	BJeLR lethal	Bead autofluor	PrP 5UTR inh
Cc1ccc(-c2nc(N)n(C(=O)c3cccnc3)n2)cc1	3.7	-7	-2	9	-6	7961	-30
N#Cc1nc(-c2ccccc2F)oc1NCCc1ccccn1	0.2	3	1	4	-5	3032	-12
CC(Oc1ccccc1F)C(=O)NNC(=O)CCS(=O)(=O)c1ccccc1Cl (configuration not stated)	2.6	-6	1	-2	5	5145	-15

Further records.
SMILES	Sa RN4220 lethal	Sa ugtP lethal	Mtb hypoxia inh	Mtb hypoxia inh growth	BJeLR lethal	Bead autofluor	PrP 5UTR inh
CCCOc1ccc(C2c3c(oc4cc(C)c(C)cc4c3=O)C(=O)N2CCCN(C)C)cc1 (configuration not stated)	-0.9	6	nt	nt	-2	5934	-3
CC(C)C[C@H](NC(=O)OC(C)(C)C)C(=O)N1CCC(C(=O)N[C@@H](Cc2c[nH]c3ccccc23)C(=O)O)CC1	2.4	4	12	8	5	3307	-10
Cc1c(C)n(Cc2ccc(Cl)cc2)c2ccc(C(=O)NCCN3CCOCC3)cc12	7.1	0	-2	-6	-3	4701	6
Cc1ccc(NC(=O)CSc2ccc3nnc(-c4cccnc4)n3n2)cc1	-0.4	-1	-2	11	-3	4565	-26
COc1ccc(CNc2ccccc2SC)cc1OC	5.9	4	11	21	-7	10503	-41
COc1cc(NC(=O)c2ccccc2-n2cnnn2)cc(OC)c1	3.0	10	2	9	-9	nt	-6
CCN(CC)/C(N)=N/c1nc(C)cc(C)n1	2.0	9	2	10	-4	3283	-17
CC(=O)C(Cl)C(=O)Nc1ccccc1 (configuration not stated)	5.8	2	13	9	nt	3878	-25
CCOC(=O)c1c(C)[nH]c(C(=O)COC(=O)CNC(=O)c2ccc(Br)cc2)c1C	-0.3	8	4	8	7	2928	-19
O=C(c1ccco1)N1CCN=C1SCc1cccnc1	0.2	-6	nt	nt	-1	3872	-17
CN(C(=O)CON=Cc1ccc(Cl)cc1)c1ccccc1	6.2	10	0	14	nt	nt	nt
CCC(=O)Nc1cc2c(cc1C(C)=O)OCCO2	-11	-6	20	2	-4	3347	-11
COc1cccc(CCNC(=O)CCc2nnc(-c3cc(C)oc3C)o2)c1	4.6	8	1	-2	-3	4387	-34
CC1CN(C=O)CC(C)N1CCN1C(C)CN(C=O)CC1C (configuration not stated)	0.2	0	2	3	nt	2835	5
Fc1ccc2nc(N3CCCC3)sc2c1	0.7	6	22	23	11	3894	-92

Some of the entries so far, as labelled records.
O=C(c1ccco1)N1CCN=C1SCc1cccnc1
- Sa RN4220 lethal: 0.2
- Sa ugtP lethal: -6
- Mtb hypoxia inh: nt
- Mtb hypoxia inh growth: nt
- BJeLR lethal: -1
- Bead autofluor: 3872
- PrP 5UTR inh: -17

CN(C(=O)CON=Cc1ccc(Cl)cc1)c1ccccc1
- Sa RN4220 lethal: 6.2
- Sa ugtP lethal: 10
- Mtb hypoxia inh: 0
- Mtb hypoxia inh growth: 14
- BJeLR lethal: nt
- Bead autofluor: nt
- PrP 5UTR inh: nt

CCC(=O)Nc1cc2c(cc1C(C)=O)OCCO2
- Sa RN4220 lethal: -11
- Sa ugtP lethal: -6
- Mtb hypoxia inh: 20
- Mtb hypoxia inh growth: 2
- BJeLR lethal: -4
- Bead autofluor: 3347
- PrP 5UTR inh: -11

COc1cccc(CCNC(=O)CCc2nnc(-c3cc(C)oc3C)o2)c1
- Sa RN4220 lethal: 4.6
- Sa ugtP lethal: 8
- Mtb hypoxia inh: 1
- Mtb hypoxia inh growth: -2
- BJeLR lethal: -3
- Bead autofluor: 4387
- PrP 5UTR inh: -34

(more compounds)
SMILES	Sa RN4220 lethal	Sa ugtP lethal	Mtb hypoxia inh	Mtb hypoxia inh growth	BJeLR lethal	Bead autofluor	PrP 5UTR inh
O=[N+]([O-])c1ccc(C=Nn2c(CO)nc3ccccc32)s1	16	-2	21	17	nt	nt	nt
CCOc1ccc(C(=O)COC(C)=O)cc1	2.1	-3	nt	nt	10	2678	-26
O=C(Nc1nc2ccc(Cl)cc2s1)c1ccco1	0.0	9	nt	nt	-2	3324	-47
COC(=O)Cc1nnc(NC(=O)C(C)C)s1	2.6	-5	10	6	2	9087	-21
O=C(CN1CCOCC1)N/N=C/c1cc2ccccc2nc1Cl	nt	nt	nt	nt	3	3293	-30
CCOc1c(OC)cccc1C(=O)NCC1(c2ccccc2)CCCC1	6.4	44	6	8	0	3899	-8
O=C(NCC1CCCO1)c1ccc(CNS(=O)(=O)c2cccc(Cl)c2)cc1 (configuration not stated)	2.9	9	2	1	-6	3359	-17
COc1ccc(-c2cn(-c3ccc(C)cc3)c(=O)n2CC(=O)Nc2cccc(F)c2)cc1	-0.8	-3	-6	4	3	4602	-2
COc1cccc(-c2ncc3ccccc3c2COC(=O)c2ccc(Br)cc2)c1	5.5	7	24	9	nt	3988	-8
Cc1cccc(NC(=S)N/N=C/c2ccc([N+](=O)[O-])s2)c1	nt	nt	nt	nt	2	3008	0
Fc1ccccc1CN(CCN1CCOCC1)C(=S)Nc1ccccc1Cl	6.1	6	6	8	-12	4179	-13
CC(NC(=O)c1nc[nH]c1C(=O)NCc1ccc(CNC(=O)OC(C)(C)C)cc1)C(=O)OCc1ccccc1 (configuration not stated)	4.8	6	0	9	nt	nt	nt
CCc1c(C#N)c(SCCC(=O)Nc2cccc(OC)c2)nc2c1C(=O)CC(C)(C)C2	0.6	-20	12	13	-11	3281	-17
O=C(CCCc1ccccc1)Nc1cccnc1Cl	5.9	10	6	2	11	4128	-23
COc1cccc(-n2nnnc2SCC(=O)NCCc2ccccc2)c1	-1.5	4	nt	nt	5	5433	-34
NC(=O)C(=O)NN=C1C2CC3CC(C2)CC1C3	3.5	9	6	3	5	3282	-15
Cc1cccc(OP(=O)(Nc2cccnc2)Oc2cccc(C)c2)c1	nt	nt	nt	nt	1	3546	-13
COc1ccccc1CN1CC(C(=O)N(CCO)Cc2cccs2)CCC1=O (configuration not stated)	1.4	3	6	5	1	6018	-4
c1ccc(CSCc2nc3ccccc3[nH]2)cc1	0.9	2	1	3	1	2486	-64
CCc1noc2c1/C(=N\O)CC(c1ccccc1)C2 (configuration not stated)	nt	nt	nt	nt	2	4639	-6
C=CCn1c(N)c(S(=O)(=O)c2cccs2)c2nc3ccccc3nc21	12	-6	-6	7	-4	3234	-4

High-throughput results from PubChem BioAssay.

Rows are unselected; about 4% have a hit in one of these screens.
